PK Bst: modulators of Bacillus stearothermophilus pyruvate kinase; partly purified Bacillus stearothermophilus pyruvate kinase, luminescence ATP production; ribose 5-phosphate activator present at AC10; Potency, µM; 51,000 tested, 1.2% active; AID 361; in the data active means potency below about 11 µM; inconclusive means mostly about 12 µM to 25 µM; inactive means weaker than that;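 the screen sought inhibitors and activators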;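 further: potency means the concentration at half of the fitted maximal effect; scaled between full activation by ribose 5 phosphate and full inhibition by luteolin; about four in five hits inhibit and the cells do not say which; series up to 57 µM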
TsaE inh: displaces an ADP probe from E. coli YjeE (TsaE); Potency, µM; 71,000 tested, 0.05% active; purified YjeE, fluorescence polarisation of a bound ADP probe; AID 605; active = well fitted falling curve; inconclusive = weaker or top-dose-only fall, or a rising curve; inactive = flat or poorly fitted curve;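 further: top concentration of the series not given in the record; excess ADP was the control for the full effect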
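Purified YjeE (10 uM) with BODIPY Texas Red-labeled ADP probe (2 uM); compounds pin-transferred, 15 min at room temperature. Binding inhibition read as decreased fluorescence polarization; ADP titration as control.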
* = called active by the depositor.

What do the screens show for `O=C1c2ccccc2NC2CCCCC12` (centres undefined)?
PK Bst: >57; TsaE inh: inactive

Results for O=C(Cn1c(-c2ccccc2)noc1=O)Nc1ccc(N2CCCCCC2)cc1 ?
PK Bst: >57; TsaE inh: inactive

How did COc1ccc2cc(CCNC(=O)c3ccc(Br)o3)c(=O)[nH]c2c1 do in these assays?
TsaE inh: inactive

What do the screens show for `Cc1cc(NC(=O)c2cccc(S(=O)(=O)N3CCOCC3)c2)c2ccccc2n1`?
PK Bst: >57; TsaE inh: inactive

What do the screens show for `CCn1nnc(NC(=O)c2cc3ccccc3o2)n1`?
PK Bst: >57; TsaE inh: inactive

What do the screens show for `COc1cc(C2NC(=O)NC(C)=C2C(=O)OC(C)(C)C)ccc1OCC(=O)O` (centres undefined)?
PK Bst: >57; TsaE inh: inactive

Results for COC(=O)c1ccc(OC(=O)c2ccco2)cc1 ?
PK Bst: >57; TsaE inh: inactive

What do the screens show for `COc1ccccc1OCCn1c(C(C)O)nc2ccccc21` (centres undefined)?
PK Bst: >57; TsaE inh: inactive

Results for Clc1ccc(CSc2nnc(-c3ccncc3)o2)cc1 ?
PK Bst: >57; TsaE inh: inactive

What do the screens show for `CC(=O)N1CCc2cc(S(=O)(=O)N3CCOCC3)ccc21`?
PK Bst: >57; TsaE inh: inactive

Results for CC(C)Oc1ccc(C(=O)N(CN2CCCC2=O)c2ccc(F)cc2)cc1 ?
PK Bst: >57; TsaE inh: inactive

How did O=C(/C=N/O)Nc1ccccc1C(=O)O do in these assays?
TsaE inh: inactive

Results for COc1ccc(C(=O)N2CCC3(CCCN(C(=O)Nc4cccc(C#N)c4)C3)CC2)cc1 ?
TsaE inh: inactive

Results for Cc1ccc(-n2c(Cc3cccn3C)nnc2SCC(N)=O)cc1 ?
PK Bst: >57; TsaE inh: inactive

What do the screens show for `Cc1nnc(SCc2cc(=O)n3[nH]cnc3n2)s1`?
PK Bst: >57; TsaE inh: inactive

Results for COc1ccc(CC(=O)Nc2ccc(N3CCN(c4ccc(OC)cc4)CC3)c(C#N)c2)cc1 ?
PK Bst: >57; TsaE inh: inconclusive

How did COc1ccc(CCn2c(C)cc(C(=O)CSc3nnnn3C)c2C)cc1 do in these assays?
PK Bst: >57; TsaE inh: inactive

What do the screens show for `CCS(=O)(=O)Nc1ccc(C(=O)CC2(O)C(=O)Nc3ccc(Br)cc32)cc1` (centres undefined)?
PK Bst: >57; TsaE inh: inactive

How did CCOC(=O)c1cccnc1SCC(=O)N(C)c1ccccc1 do in these assays?
PK Bst: >57; TsaE inh: inactive

How did CCCCC1CCC(C(=O)Nc2c(C)n(C)n(-c3ccccc3)c2=O)CC1 (centres undefined) do in these assays?
PK Bst: >57; TsaE inh: inactive

Results for COC(=O)c1[nH]c2cc(C)ccc2c1NC(=O)CN1CCc2cc(OC)c(OC)cc2C1 ?
PK Bst: >57; TsaE inh: inactive

Results for Cc1ccc(C2C(C#N)=C(N)SC(N)=C2C#N)cc1 ?
PK Bst: >57; TsaE inh: inactive

What do the screens show for `O=C(c1cnsn1)N1CCN(c2ccccc2)CC1`?
PK Bst: >57; TsaE inh: inactive

Results for COc1cccc(NC(=O)Cn2c(-c3cncs3)nc3ccccc32)c1 ?
PK Bst: >57; TsaE inh: inactive

Results for C[C@@H]1C[C@H]2[C@@H]3C[C@H](F)C4=CC(=O)C=C[C@@]4(C)[C@]3(F)[C@H](O)C[C@]2(C)[C@@]1(O)C(=O)CO ?
TsaE inh: inactive

How did C=CCSc1nnc2nc3c(nn12)c1cc(C)ccc1n3CC=C do in these assays?
TsaE inh: inactive

How did Cc1cc(C)cc(NS(=O)(=O)c2ccc3[nH]cc(C(=O)NCc4ccco4)c(=O)c3c2)c1 do in these assays?
PK Bst: >57; TsaE inh: inactive

How did COc1ccc(NC(=O)CCc2nc(-c3ccccc3F)no2)cc1 do in these assays?
PK Bst: >57; TsaE inh: inactive

Results for Cc1cc(Cl)nc(NC(=O)CSc2ccc(Cl)cc2)n1 ?
TsaE inh: inactive

Results for O=C(NCc1cccs1)c1cc2c(s1)-c1ccccc1OC2 ?
TsaE inh: inactive

What do the screens show for `Cc1ccc(Nc2nc(CSc3nnnn3C)cs2)cc1`?
PK Bst: inconclusive; TsaE inh: inactive

What do the screens show for `CN(CC(=O)Nc1nccs1)S(=O)(=O)c1ccc(F)cc1`?
PK Bst: >57; TsaE inh: inactive

What do the screens show for `Cc1ccc(OCc2nc(C#N)c(N3CCCC3)o2)cc1`?
PK Bst: >57; TsaE inh: inactive

What do the screens show for `CCCCC(=O)NC(Nc1ccc(C)cn1)(C(=O)OCC)C(F)(F)F` (centres undefined)?
PK Bst: >26

How did COc1ccc(C(c2nnnn2C2CCCCC2)N2CCN(c3ccccc3F)CC2)cc1 (centres undefined) do in these assays?
PK Bst: >57; TsaE inh: inactive

How did CCOc1ccc(NC(=O)CS(=O)CC(=O)NC2CCCc3ccccc32)cc1 (centres undefined) do in these assays?
PK Bst: >57; TsaE inh: inactive

What do the screens show for `COc1ccccc1NC(=O)CN1CCN(Cc2ccccc2)CC1`?
PK Bst: >57; TsaE inh: inactive

Results for CC(=O)Nc1ccc(S(=O)(=O)Nc2nc3ccccc3nc2Sc2nncn2C)cc1 ?
PK Bst: >57; TsaE inh: inactive

How did O=C(Cn1nnc(-c2ccccc2F)n1)Nc1ccc(C(=O)N2CCOCC2)cc1 do in these assays?
PK Bst: >57; TsaE inh: inactive

Results for CC(C)CN1CCC2(CC1)CCN(C(=O)c1ccco1)CC2 ?
TsaE inh: inactive

How did COc1ccc(OCC(=O)Nc2cccc3cccnc23)cc1 do in these assays?
PK Bst: >57; TsaE inh: inactive

What do the screens show for `O=C(O)c1cscc1Cc1cccs1`?
TsaE inh: inactive

How did CC(=O)Nc1ccc(S(=O)(=O)NCCc2csc(C)n2)cc1 do in these assays?
PK Bst: >57; TsaE inh: inactive

What do the screens show for `C=CCSc1nnc2c(n1)[nH]c1c(C)cccc12`?
TsaE inh: inactive

What do the screens show for `Cc1ccccc1Nc1nnc(C)c(=O)[nH]1`?
PK Bst: >57; TsaE inh: inactive

How did Nc1c(C(=O)NC2CCCC2)c2nc3ccccc3nc2n1N do in these assays?
TsaE inh: inactive

How did O=c1c(O)c(-c2ccc3c(c2)OCO3)oc2ccccc12 do in these assays?
PK Bst: >57; TsaE inh: inactive

What do the screens show for `CCOc1ncccc1C(=O)OCC(=O)c1ccc[nH]1`?
PK Bst: >57; TsaE inh: inactive

How did O=C(c1ccncc1)N1CCC2(CC1)CN(c1cccc(-c3ccccc3)c1)C2 do in these assays?
TsaE inh: inactive

What do the screens show for `O=C(NC1=NCCS1)C1CC2CCC1C2` (centres undefined)?
TsaE inh: inactive

What do the screens show for `CC(=O)N1c2c(cc(Br)cc2S(=O)(=O)N2CCOCC2)CC1C` (centres undefined)?
PK Bst: >57; TsaE inh: inactive

What do the screens show for `CSC1=NCCN1C(=O)Cc1ccc(F)cc1`?
TsaE inh: inactive

What do the screens show for `CCC(C)N(C(=O)COC(=O)c1[nH]c(C)c(C(C)=O)c1C)C1CCS(=O)(=O)C1` (centres undefined)?
PK Bst: >57; TsaE inh: inactive

How did CN(C)S(=O)(=O)c1cccc(-c2nnc(SCc3cc(Cl)cc4c3OCOC4)n2N)c1 do in these assays?
PK Bst: >57; TsaE inh: inactive

Results for CCCN(CCC)CCCNC(=O)CS(=O)Cc1nc(-c2ccc(OC)c(OC)c2)oc1C (centres undefined) ?
PK Bst: >57; TsaE inh: inactive

What do the screens show for `N=c1c(C(=O)NCc2ccco2)cc2c(=O)n3ccccc3nc2n1Cc1ccc(Cl)cc1`?
TsaE inh: inactive

How did CCOC(=O)CN1C(=O)C2(OCCCO2)c2ccccc21 do in these assays?
PK Bst: >57; TsaE inh: inactive

How did Cn1nc(-c2ccccc2)c2nc3ccccc3nc21 do in these assays?
PK Bst: 8*; TsaE inh: inactive

How did CN1CCN(CCNC(=O)Nc2ccccc2C(F)(F)F)CC1 do in these assays?
PK Bst: >57; TsaE inh: inactive

How did CCCC[C@@H]1C[C@H]1C(NC(=O)c1cccs1)c1ccc(C(F)(F)F)cc1 (some centres undefined) do in these assays?
TsaE inh: inactive

How did Cc1cc(C)c2c(N)c(S(=O)(=O)Cc3ccccc3)sc2n1 do in these assays?
PK Bst: >57; TsaE inh: inactive

Results for COc1ccc(N2C(=O)C3CCCN3C2c2ccc(Cl)cc2)cc1 (centres undefined) ?
TsaE inh: inactive

How did COCCn1nnnc1C(c1cc2cc(C)ccc2[nH]c1=O)N1CCCCCC1 (centres undefined) do in these assays?
PK Bst: >57; TsaE inh: inactive

Results for C=CCOC(=O)COc1ccc2c(C)c(CC)c(=O)oc2c1 ?
TsaE inh: inactive

What do the screens show for `COc1cccc(C(=O)NCC(=O)N2CCC(C)CC2)c1`?
PK Bst: >57; TsaE inh: inactive

What do the screens show for `C/C(=N\O)c1ccc2c3c([nH]c2c1)CCCC3`?
TsaE inh: inactive

Results for Cc1c(Nc2nc3ccccc3nc2NS(=O)(=O)c2ccccc2)c(=O)n(-c2ccccc2)n1C ?
PK Bst: >57; TsaE inh: inactive

What do the screens show for `CC[N+](C)(C)c1cccc(O)c1`?
PK Bst: >26; TsaE inh: inactive

What do the screens show for `N[C@@H](Cc1ccccc1)C(=O)O`?
TsaE inh: inactive

How did Cn1cccc1C(=O)N1CCC2(CC1)CN(C(=O)Nc1ccccc1)C2 do in these assays?
TsaE inh: inactive

How did COc1ccc(-c2nc(CS(=O)CC(=O)NC3CCCc4ccccc43)c(C)o2)cc1OC (centres undefined) do in these assays?
TsaE inh: inactive

Results for C=C(C)Cn1c(SCC(=O)NCc2ccco2)nc2sc3c(c2c1=O)CCC3 ?
PK Bst: inconclusive; TsaE inh: inactive

What do the screens show for `O=S(=O)(Cc1ccccc1)NCC1CCCO1` (centres undefined)?
TsaE inh: inactive

What do the screens show for `O=C(OC1CCOC1=O)c1ccc(S(=O)(=O)N2CCCCCC2)cc1` (centres undefined)?
PK Bst: >57; TsaE inh: inactive

What do the screens show for `Cn1c(=O)cc(SCC(=O)NCCCN2CCN(c3ccccc3F)CC2)c2ccccc21`?
PK Bst: >57; TsaE inh: inactive

Among those listed so far, 4 contain a COOH group.
What do the screens show for `COc1cc(C2NC(=O)NC(C)=C2C(=O)OC(C)(C)C)ccc1OCC(=O)O` (centres undefined)?
PK Bst: >57; TsaE inh: inactive

How did O=C(/C=N/O)Nc1ccccc1C(=O)O do in these assays?
TsaE inh: inactive

What do the screens show for `O=C(O)c1cscc1Cc1cccs1`?
TsaE inh: inactive

What do the screens show for `N[C@@H](Cc1ccccc1)C(=O)O`?
TsaE inh: inactive

Six records drawn at random from those above, as already listed:
Results for Cc1c(Nc2nc3ccccc3nc2NS(=O)(=O)c2ccccc2)c(=O)n(-c2ccccc2)n1C ?
PK Bst: >57; TsaE inh: inactive

How did COc1ccc(-c2nc(CS(=O)CC(=O)NC3CCCc4ccccc43)c(C)o2)cc1OC (centres undefined) do in these assays?
TsaE inh: inactive

What do the screens show for `O=S(=O)(Cc1ccccc1)NCC1CCCO1` (centres undefined)?
TsaE inh: inactive

What do the screens show for `O=C(OC1CCOC1=O)c1ccc(S(=O)(=O)N2CCCCCC2)cc1` (centres undefined)?
PK Bst: >57; TsaE inh: inactive

What do the screens show for `COc1cccc(C(=O)NCC(=O)N2CCC(C)CC2)c1`?
PK Bst: >57; TsaE inh: inactive

What do the screens show for `CC[N+](C)(C)c1cccc(O)c1`?
PK Bst: >26; TsaE inh: inactive

(next part)
What do the screens show for `COc1ccc(C)cc1NC(=O)C1CCCN1C(=O)OCc1ccccc1` (centres undefined)?
PK Bst: >57; TsaE inh: inactive

Results for CCOC(=O)C1=C(C)S/C(=C\N(C)C)C1=O ?
TsaE inh: inactive

What do the screens show for `COC(=O)c1ccccc1NC(=O)CN1CCN(C23CC4CC(CC(C4)C2)C3)CC1`?
PK Bst: >57; TsaE inh: inactive

What do the screens show for `CC(C)c1nc(N2CCOCC2)c(C#N)c2c1CCCC2`?
PK Bst: >57; TsaE inh: inactive

How did CN1C(=O)C(O)(CC(=O)c2ccc3c(c2)OCO3)c2ccccc21 (centres undefined) do in these assays?
TsaE inh: inactive

What do the screens show for `COc1ccc(CCNC(=O)CSc2nnc(CNC(=O)c3ccco3)o2)cc1OC`?
PK Bst: >57; TsaE inh: inactive

How did CCOC(=O)c1oc2c(C)c(O)ccc2c(=O)c1-c1nncn1-c1ccccc1 do in these assays?
PK Bst: >57; TsaE inh: inactive

Results for COc1cccc(/C=N/n2c(C)nc3ccccc3c2=O)c1O ?
PK Bst: >57; TsaE inh: inactive

Results for CCOC(=O)C1CCN(C(=O)c2sc3nc(-c4ccccc4)cn3c2C)CC1 ?
PK Bst: >57; TsaE inh: inactive

Results for CC(C)(NO)/C(=N/O)c1ccc(Br)cc1 ?
TsaE inh: inactive

What do the screens show for `O=C(NCCCN1CCOCC1)c1cc2ccccc2oc1=O`?
PK Bst: >57; TsaE inh: inactive

Results for COc1cc2c(cc1OC)C(c1ccccc1)N(C(=O)c1ccco1)CC2 (centres undefined) ?
TsaE inh: inactive

Results for O=C(NC1CCCCCC1)C1C2C=CC3(CN(Cc4cccnc4)C(=O)C13)O2 (centres undefined) ?
TsaE inh: inactive

How did CCn1c(SCC(=O)c2ccc(C)cc2)nnc1-c1ccoc1C do in these assays?
PK Bst: >57; TsaE inh: inactive

Results for COCCn1c(=O)c(C)nc2cnc(Nc3cccc(OC)c3)nc21 ?
TsaE inh: inactive

Results for CCCn1c(CCC(=O)O)ccc1-c1ccc(OC)cc1 ?
PK Bst: >57; TsaE inh: inactive

How did O=[N+]([O-])c1ccc(Cl)cc1Cl do in these assays?
TsaE inh: inactive

What do the screens show for `Cc1ccc(S(=O)(=O)N(C)CC(=O)Nc2ccncc2)cc1`?
PK Bst: >57; TsaE inh: inactive

The list is partial; the hit share may differ from the screen's.
